D2 PAM – potentiates the human D2 dopamine receptor allosterically | potentiation, % (no concentration beside the values) | P14416 | DiscoveRx D2 beta-arrestin cells, luminescence, 90 min; 100% = 57 uM dopamine signal | actives 0.23% (n = 360,000); active = potentiation of 50% or more; inconclusive = 30% to 50%; inactive = 30% or less;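 note: compound concentration not given in the record; tested on top of an EC20 dose of dopamine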
Target sequence (P14416 whole entry, looked up): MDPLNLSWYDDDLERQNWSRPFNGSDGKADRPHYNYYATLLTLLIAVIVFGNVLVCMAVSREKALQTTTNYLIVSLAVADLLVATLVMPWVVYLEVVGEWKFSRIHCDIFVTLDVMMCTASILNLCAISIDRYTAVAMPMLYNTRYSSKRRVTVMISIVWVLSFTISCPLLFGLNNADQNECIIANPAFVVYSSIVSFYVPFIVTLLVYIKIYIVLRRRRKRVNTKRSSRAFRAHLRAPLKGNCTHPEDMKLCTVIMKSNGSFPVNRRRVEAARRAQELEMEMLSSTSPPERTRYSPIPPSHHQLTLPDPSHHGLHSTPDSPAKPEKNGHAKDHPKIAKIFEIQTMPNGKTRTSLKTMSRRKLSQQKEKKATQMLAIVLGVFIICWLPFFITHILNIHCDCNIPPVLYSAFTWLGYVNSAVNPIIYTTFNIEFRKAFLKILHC
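D2 cells co-treated with compound plus 50 nM dopamine (EC20) for 90 min at 37 deg C to detect potentiation. Beta-arrestin recruitment was read as enzyme-fragment luminescence after 1 h at ambient temperature. Full response was set by 57 uM dopamine.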
TRPML1 ag – activates the human TRPML1 channel | Q9GZU1 | AID 624414 | actives 0.12% (n = 410,000) | TRPML1-expressing cells, Ca2+ dye fluorescence, FDSS; host cell line not named in the record; reference of the full effect not given here | activation, % (no concentration beside the values); in the data active = activation above about 50%; inconclusive = about 30% to 50%; inactive = below about 30%; note: 0% is about no effect; the text of the record puts the active cut at 80%
Target sequence (Q9GZU1 whole entry, looked up): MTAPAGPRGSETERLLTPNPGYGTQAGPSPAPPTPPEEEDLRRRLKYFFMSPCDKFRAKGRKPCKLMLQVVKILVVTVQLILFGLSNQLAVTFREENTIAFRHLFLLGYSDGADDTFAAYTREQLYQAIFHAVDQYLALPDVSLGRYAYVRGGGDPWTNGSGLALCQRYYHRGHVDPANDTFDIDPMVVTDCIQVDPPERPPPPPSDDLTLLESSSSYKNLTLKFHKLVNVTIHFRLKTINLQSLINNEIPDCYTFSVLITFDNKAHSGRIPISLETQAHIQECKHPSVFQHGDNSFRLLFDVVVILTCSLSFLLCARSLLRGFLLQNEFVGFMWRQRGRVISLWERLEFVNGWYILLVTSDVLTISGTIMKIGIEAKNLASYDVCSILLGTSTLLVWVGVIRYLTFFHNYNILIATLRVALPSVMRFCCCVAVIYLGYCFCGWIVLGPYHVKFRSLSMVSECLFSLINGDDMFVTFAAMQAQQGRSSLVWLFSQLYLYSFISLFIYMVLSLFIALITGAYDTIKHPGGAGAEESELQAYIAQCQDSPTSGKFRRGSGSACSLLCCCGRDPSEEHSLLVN
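Tetracycline-induced TRPML1-DL cells are seeded and incubated overnight before loading with a no-wash Ca2+ dye and quencher. Agonist activity is taken from the 110 s fluorescence read following compound pin-transfer on an FDSS, before EC80 54-4 challenge.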
Six1-Eya2 inh – Six1/Eya2 interaction inhibition; actives 0.56% (n = 360,000); activity change, % (concentration not given with the values); AlphaScreen GST-Six1/His-Eya2 binding, biochemical; hits give low values; control for the full effect not named in the record; Q15475+O00167; AID 651725; in the data active = activity change below about -65%; inconclusive = about -30% to -65%; inactive = above about -30%; note: % is set by controls: 0 for no effect and ±100 for the full control effect
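Six1/Eya2 binding was read as AlphaScreen signal after compounds were pinned into GST-Six1 plus His-tagged Eya2 (5X stock 250/500 nM) in pH 8.0 Tris/NaCl/TCEP buffer, beads added, then incubated 1 h, 37 C, dark.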
TRPML1 blocker – human mucolipin-1 channel inhibition. Q9GZU1. TRPML1-inducible cells, Ca2+ dye fluorescence, FDSS; hits give low values; inhibition of EC80 agonist-evoked calcium signal. activity change, negative = inhibition, % (concentration not given with the values). actives 0.02% (n = 390,000). AID 624415; in the data active means activity change below about -50%; inconclusive means about -30% to -50%; inactive means above about -30%;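 note: stimulus is agonist 54-4 at its EC80 concentration; % is set by controls: 0 for no effect and ±100 for the full control effect; compound concentration not given in the record; the text of the record puts the active cut at -80%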
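Calcium fluorescence in TRPML1-DL cells induced overnight with Tet: a 110 s read after compound pin addition, then a 110 s antagonist read after challenge with 54-4 at 4 uM final (EC80).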
D2 ag – agonists of human D2 dopamine receptor (beta-arrestin); activation, % (no concentration beside the values); actives 0.084% (n = 360,000); DiscoveRx PathHunter D2 beta-arrestin, luminescence, 90 min; 100% = 57 uM dopamine signal; in the data active = activation above about 40%; inconclusive = about 15% to 40%; inactive = below about 15%; note: compound concentration not given in the record; the text of the record calls up to 30% inactive
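Agonist mode: compounds alone added to overnight-plated D2 PathHunter cells for 90 min at 37 C, with 57 uM final dopamine (EC100) defining full response. Beta-arrestin recruitment detected by chemiluminescent reagent, read after 1 h at ambient temperature.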
PINK1 expr mod – PINK1 expression modulation | PINK1 immunofluorescence, high-content cytometry, 24 h | Potency, µM (doses to about 76.6 µM), for inactives: at the highest dose activation (PINK1 increase), hits mostly activators | actives 0.2% (n = 410,000) | AID 624263; active = well fitted activation curve with a large enough effect; inconclusive = small, poorly fitted or top-dose-only effect; inactive = flat fitted curve, though single readings scatter; cell line not stated here;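 note: potency is the fitted concentration of half-maximal effect; % of control where 0% means no effect; nearly all actives have a fitted effect of over 65% in size; a mitochondrial uncoupler was the plate control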
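PINK1 protein, normally rapidly degraded, was detected by immunofluorescence after 24 hour compound treatment of a stable cell line. Titration data (5 concentrations) came from laser-scanning cytometry, with CCCP-treated wells as controls.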
* hit, by the source's call; ? = inconclusive; . = no result given; [ ] = another dose, or the depositor's remark.

SMILES | D2 PAM | TRPML1 ag | Six1-Eya2 inh | TRPML1 blocker | D2 ag | PINK1 expr mod
C#CCN(C[C@H]1[C@H](OC(=O)NCc2ccco2)[C@H](OC(=O)NCc2ccco2)C[C@H]2C(=O)N(c3ccccc3)C(=O)[C@@H]12)S(=O)(=O)c1ccc(C)cc1 | 1 | 2.0 | -8 | 5 | -8.9 | 0.8%
CC(Oc1ccccc1Cl)C(=O)Nc1ccccc1C(=O)N1CCOCC1 (configuration not stated) | 12 | -0.6 | -6 | -3 | -1.8 | 1.8%
Cc1ccc(NC(=O)c2ccc([N+](=O)[O-])o2)cc1S(=O)(=O)N1CCOCC1 | 1 | -0.2 | -7 | -7 | 12 | -0.2%
CC(=O)Nc1cccc(-c2ccnc3c2CC(C)(C(=O)Nc2ccc(Cl)cc2)O3)c1 (configuration not stated) | -5 | 0.0 | 3 | . | 3.2 | 1.1%
O=C(NNC(=O)c1ccc(-n2cncn2)c([N+](=O)[O-])c1)c1ccccc1 | -18 | 0.0 | 11 | 37 | -4.4 | 1.8%
Cc1cc(C)n(CCC(=O)N2CCCC(N3CCN(c4cccc(Cl)c4)CC3)C2)n1 (configuration not stated) | -15 | 0.4 | 23 | -9 | -3.3 | 0.3%
C(=N\Nc1nc2ccccc2[nH]1)/c1ccccn1 | -9 | -0.9 | ? | 24 | 1.9 | -0.4%
Cc1ccc(Cl)cc1NC(=O)c1ccc(Cn2cc(Cl)cn2)cc1 | -10 | 2.5 | 1 | 6 | -3.4 | 4.9%
CC12CCC(=O)N1C(C(=O)Nc1nc3ccccc3s1)CS2 (configuration not stated) | -3 | -0.2 | 5 | -7 | -3.7 | -0.8%
COc1cccc(CNC(=O)C2CCCN(S(=O)(=O)c3ccc4c(c3)C(C)(C)C(=O)N4C)C2)c1 (configuration not stated) | 3 | -1.1 | 4 | -1 | -4.8 | 2.2%
CCOc1ccc(NCCC(O)c2ccc(F)cc2)cc1 (configuration not stated) | -5 | -0.9 | -16 | -8 | -3.4 | -0.6%
COc1ccc(NC(=O)C(NC(=O)CC2NC(=O)NC2=O)c2ccccc2)cc1 (configuration not stated) | -1 | 0.3 | 10 | -4 | -4.1 | -2.7%
CCC(=O)N1c2ccccc2CC1C(=O)NCCc1ccccc1C (configuration not stated) | . | -0.1 | . | 1 | . | 1.5%
CCc1ccc(OCC(O)CN2CCC(CN3C(=O)c4cccc5cccc(c45)C3=O)CC2)cc1 (configuration not stated) | -3 | 0.9 | 2 | 1 | 0.2 | -1.4%
O=C(C1=C[C@@H](c2csc3ccccc23)C[C@@H](OCc2ccc(CO)cc2)O1)N1CCN(Cc2ccc3c(c2)OCO3)CC1 | -5 | 1.6 | -14 | 21 | 5.1 | 1.4%
CC(C)(C)c1ccc(S(=O)(=O)NC(=O)C2(C)CCN2C(=O)Cc2cccs2)cc1 (configuration not stated) | -6 | -0.3 | -6 | 31 | -7.2 | 1.7%
CN(C)S(=O)(=O)c1ccc(C(=O)Nc2ccccc2F)cc1 | -10 | -0.1 | -1 | -15 | -1.6 | -2.4%[38.3 µM]
CCOC(=O)c1cnn(-c2ccccc2)c1-n1cccc1C(=O)C(=O)Nc1ccccc1 | -21 | 0.1 | -15 | 4 | 0.2 | 3.8%
CCOCCCNC(=S)N(CCO)Cc1cc2cc3c(cc2[nH]c1=O)OCCO3 | 0 | -0.1 | 3 | 11 | 8.9 | 0.3%
CC(C)CN(/C=N/c1sc2c(c1C#N)CCCCC2)CC(C)C | 7 | 0.4 | 2 | -6 | 2.8 | 4.9%

Compound profiles, as listed above:
Entry for CCOC(=O)c1cnn(-c2ccccc2)c1-n1cccc1C(=O)C(=O)Nc1ccccc1 : D2 PAM: -21; TRPML1 ag: 0.1; Six1-Eya2 inh: -15; TRPML1 blocker: 4; D2 ag: 0.2; PINK1 expr mod: 3.8%
Entry for Cc1ccc(NC(=O)c2ccc([N+](=O)[O-])o2)cc1S(=O)(=O)N1CCOCC1 : D2 PAM: 1; TRPML1 ag: -0.2; Six1-Eya2 inh: -7; TRPML1 blocker: -7; D2 ag: 12; PINK1 expr mod: -0.2%

The list goes on:
SMILES | D2 PAM | TRPML1 ag | Six1-Eya2 inh | TRPML1 blocker | D2 ag | PINK1 expr mod
COc1ccc(NC(=O)Nc2ccc3c(c2)C(=O)N([C@H](C)CO)C[C@H](C)[C@@H](CN(C)S(C)(=O)=O)O3)cc1 | -4 | -0.5 | 2 | 1 | 0.1 | -0.3%
O=C(O)CCN1C(=O)/C(=C/c2cn(-c3ccccc3)nc2-c2cccs2)SC1=S | -4 | 1.4 | -12 | -14 | -0.9 | 1.6%
CCN(CC)S(=O)(=O)c1ccc(C(=O)Nc2nnc(C(C)C)s2)cc1 | -7 | -0.1 | 5 | 1 | -4.3 | 4.0%
N/C(=N\c1nc2c(c(=O)[nH]1)CCC2)Nc1cccc2ccccc12 | -6 | 1.5 | -2 | 1 | -1.3 | 4.7%[38.3 µM]
COc1cccc(NC(=O)c2ccc3nc(CCc4ccccc4)oc3c2)c1 | . | 1.5 | . | 21 | . | 3.4%
O=C(COc1ccccc1)Nc1ccc2c(c1)nc1n2CCOC1 | -10 | -0.2 | 25 | -1 | -3.0 | 3.1%[38.3 µM]
CCc1ccc(C2Sc3ccccc3NC3=C2C(=O)c2ccccc23)cc1 (configuration not stated) | . | -0.4 | . | 5 | . | 21%
COc1ccc(C(=O)c2cccc(C(=O)c3ccc(OC)c(C)c3)c2)cc1C | -2 | -0.4 | 6 | -6 | -1.2 | 8.9%
CC1=C/C(=C(\c2ccc(O)c(C)c2)c2ccccc2S(=O)(=O)O)C=CC1=O | -2 | 0.0 | -7 | -6 | -1.1 | 0.2%
O=C(NCc1ccccc1Cl)c1csc(COCCO)n1 | 2 | -1.0 | -1 | . | 1.6 | 1.5%
CCN(CC)c1ccc(C2C3CCCCC3(O)CCN2C(=O)c2cccs2)cc1 (configuration not stated) | -14 | 4.3 | -10 | 4 | -2.9 | -0.4%
COc1ccc(C)cc1NC(=O)C1CCN(S(=O)(=O)c2ccccc2)CC1 | -6 | 0.1 | 0 | 15 | 0.5 | -0.3%
CCN(c1ccccc1)S(=O)(=O)c1ccc(C(=O)Nc2ccc(C)cn2)cc1 | -12 | 1.1 | 4 | 1 | -0.9 | -3.6%
COCCCNC(=O)CCc1nc2cccnc2n1Cc1ccccc1 | -6 | 0.1 | 3 | 7 | 0.8 | -2.0%[38.3 µM]
COc1ccc(-c2ccc3c(c2)S(=O)(=O)c2cccc(C(=O)NCCOc4ccccc4Cl)c2C3=O)cc1OC | -25 | -0.6 | 5 | -5 | 0.2 | 1.9%
Cc1ccc(S(=O)(=O)NC2=NCN(C3CCCCC3)CN2)cc1 | -18 | 0.6 | 7 | -3 | -3.6 | 2.1%
COc1ccc(/C=C/CN2CCN(Cc3ccccc3)C(CCO)C2)cc1 (configuration not stated) | -15 | 1.0 | -8 | 10 | -1.0 | -0.6%
CC1(C(=O)Nc2nccs2)Cc2ccccc2C(=O)O1 (configuration not stated) | -4 | 0.3 | -1 | 2 | 4.1 | -2.5%[38.3 µM]
c1ccc(-c2ccccc2OCCn2cncn2)cc1 | -32 | -0.1 | 5 | 1 | -1.6 | -0.8%
COc1ccccc1CN1C[C@@H]2C[C@@H](c3cccc(C)n3)N3CCC[C@@]23C1=O | -4 | 0.3 | 4 | 23 | -5.7 | 0.1%

Nothing new here: 2 of the compounds above.
SMILES | D2 PAM | TRPML1 ag | Six1-Eya2 inh | TRPML1 blocker | D2 ag | PINK1 expr mod
c1ccc(-c2ccccc2OCCn2cncn2)cc1 | -32 | -0.1 | 5 | 1 | -1.6 | -0.8%
COc1ccccc1CN1C[C@@H]2C[C@@H](c3cccc(C)n3)N3CCC[C@@]23C1=O | -4 | 0.3 | 4 | 23 | -5.7 | 0.1%

Other compounds:
SMILES | D2 PAM | TRPML1 ag | Six1-Eya2 inh | TRPML1 blocker | D2 ag | PINK1 expr mod
CN(CC(=O)NNC(=O)CNC(=O)c1ccccc1F)S(=O)(=O)c1ccc(Cl)cc1 | 2 | 0.5 | -1 | -4 | 4.7 | 0.9%
Cc1nc2ccccc2c(=O)n1/N=C/c1ccc2ccccc2c1O | 1 | 0.7 | ? | -18 | 2.9 | 5.5%
Cc1cc(NC(=O)c2cccc(S(=O)(=O)Nc3cccc(C(=O)O)c3)c2)no1 | -8 | -0.5 | -3 | 2 | -1.3 | 2.7%
O=C(/C=C/c1ccoc1)c1ccccc1O | 3 | -0.1 | -7 | 2 | -2.3 | -1.7%
Cc1csc(NC(=O)c2ccc(C)s2)n1 | -3 | 0.7 | -12 | -1 | 2.4 | 0.2%
O=C1NCCCN1Cc1ccc(Cl)cc1 | 0 | -0.7 | -25 | -11 | -2.5 | 1.5%
O=C(Cc1cccc(NC(=O)C2CCCN(C(=O)C3CCCCC3)C2)c1)Nc1cccc(C(=O)N2CCOCC2)c1 (configuration not stated) | 5 | 2.2 | 8 | 1 | 0.9 | -0.5%
O=C(Cn1cnc2ccccc2c1=O)c1ccccc1 | -9 | -0.4 | -1 | -6 | -3.9 | 1.2%
O=C(NCCCN1CCCC1)c1ccc(CS(=O)(=O)c2c(Cl)cccc2Cl)o1 | -18 | -0.1 | -1 | -4 | -7.2 | 0.6%
COc1cccc(NC(=O)CSc2nc(=O)n(Cc3ccco3)c3c2CCC3)c1 | . | 0.0 | . | -4 | . | 0.0%
COc1ccc(C(=O)Nc2cccc(C(=O)N/N=C/c3ccc(OC)cc3OC)c2)cc1 | 1 | 4.1 | -7 | -12 | 9.7 | -0.3%
CCOC(=O)c1cc2sc(C)cc2n1CC(=O)N(CC)CC | -10 | -0.1 | 11 | 0 | -5.2 | -0.9%
COc1ccc(Nc2ccc(C(=O)O)cc2[N+](=O)[O-])cc1 | -6 | 0.6 | 0 | 7 | -5.8 | -0.4%
O=C(CSc1nnc(-c2ccccc2)n1C1CCCCC1)N1CCCC1 | -7 | 0.3 | 3 | -13 | -0.2 | -1.7%[38.3 µM]
Cc1cnc(C(=O)OCC(=O)Nc2sc3c(c2C(N)=O)CCCC3)cn1 | 20 | -0.7 | 2 | 20 | -0.7 | -1.4%
CCc1cccc(NC(=O)CSc2ncc3c(n2)-c2ccccc2N(Cc2ccccc2C)S3(=O)=O)c1 | . | 1.0 | . | 41 | . | 1.6%
COCCC(=O)N1CCC(Oc2ccc(C(=O)NCc3ccon3)cc2)CC1 | -4 | -0.3 | 3 | 5 | -2.4 | 3.4%
Cc1ccc2c(c1)-c1nc(-c3ccccc3)cc(-c3ccccc3)c1CO2 | . | 0.1 | . | 1 | . | 0.0%
CC(=O)c1c(C)[nH]c(C(=O)Nc2cccnc2)c1C | ? | -0.6 | -6 | 10 | -1.5 | -1.8%
Cc1ccc(CN2CCC(c3cc(-c4cccs4)n[nH]3)CC2)cc1 | -18 | 1.4 | -4 | 1 | 1.3 | 16%
CC1CN(c2nc3ccccn3c(=O)c2/C=C(\C#N)C(N)=O)CC(C)O1 (configuration not stated) | -3 | -0.8 | -7 | 7 | -3.7 | 1.2%
COc1ccc(C(=O)OCC(=O)Nc2cc(C)c(C)cc2[N+](=O)[O-])cc1 | -9 | 0.3 | 0 | -8 | -4.3 | 3.3%

Screening data from PubChem.
